# TRPML1 inh: blocks the human TRPML1 channel. TRPML1-inducible cells, Ca2+ dye fluorescence, FDSS; hits give low values; inhibition of EC80 agonist-evoked calcium signal. AID 624415. Q9GZU1. actives 0.02% (n = 390,000). activity change, negative = inhibition, % (concentration not given with the values); in the data active means activity change below about -50%; inconclusive means about -30% to -50%; inactive means above about -30%;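 also: stimulus is agonist 54-4 at its EC80 concentration; % is scaled to controls: 0 for no effect and ±100 for the full control effect; compound concentration not given in the record; the text of the record puts the active cut at -80%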
#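 Tet-induced TRPML1-DL cells loaded with Ca8 no-wash calcium dye were read kinetically on FDSS. Compound addition was followed by EC80 agonist 54-4 (4 uM final); inhibition was read over 110 s.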
# gsp antagonist: antagonists of gsp mutant (McCune-Albright syndrome); gsp-mutant cells, cAMP HTRF, 30 min; control for the full effect not named in the record; Potency, µM (titrated, usually from 76.9 µM), for inactives: at the highest dose activity change, negative = inhibition, actives largely listed as inhibitors; actives 0.4% (n = 340,000); active = falling curve of any shape with a large fitted effect; inconclusive = falling curve, mostly with a smaller effect; inactive = flat or rising curve; cell line not stated here;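 also: intracellular cAMP measured with PDE inhibitor Ro 20-1724 present during compound exposure; potency is read from the fitted curve at half-maximal effect; % is scaled to controls: 0 for no effect and ±100 for the full control effect; nearly all actives have a fitted effect of over 65% in size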
#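 Cells, 2000/well, grown 16–24 h in DMEM 10% FBS with 0.5 mg/ml G418, then compounds plus […] (300 uM addition stock), 30 min at 37C. cAMP read by HTRF (cAMP-d2 and anti-cAMP antibody-K in lysis buffer) after 30 min RT.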
# TRPV1 potentiator: human TRPV1 potentiation | Q8NER1 | TRPV1-expressing cells, Fluo-8 calcium influx, capsaicin EC20 potentiation; host cell line not named in the record; control for the full effect not named in the record | potentiation, % at 8.33 µM | actives 0.02% (n = 320,000) | AID 540277; active means potentiation above 80%; inconclusive means 30% to 80%; inactive means below 30%; also: 0% is about no effect
# Target sequence (Q8NER1 whole entry, looked up): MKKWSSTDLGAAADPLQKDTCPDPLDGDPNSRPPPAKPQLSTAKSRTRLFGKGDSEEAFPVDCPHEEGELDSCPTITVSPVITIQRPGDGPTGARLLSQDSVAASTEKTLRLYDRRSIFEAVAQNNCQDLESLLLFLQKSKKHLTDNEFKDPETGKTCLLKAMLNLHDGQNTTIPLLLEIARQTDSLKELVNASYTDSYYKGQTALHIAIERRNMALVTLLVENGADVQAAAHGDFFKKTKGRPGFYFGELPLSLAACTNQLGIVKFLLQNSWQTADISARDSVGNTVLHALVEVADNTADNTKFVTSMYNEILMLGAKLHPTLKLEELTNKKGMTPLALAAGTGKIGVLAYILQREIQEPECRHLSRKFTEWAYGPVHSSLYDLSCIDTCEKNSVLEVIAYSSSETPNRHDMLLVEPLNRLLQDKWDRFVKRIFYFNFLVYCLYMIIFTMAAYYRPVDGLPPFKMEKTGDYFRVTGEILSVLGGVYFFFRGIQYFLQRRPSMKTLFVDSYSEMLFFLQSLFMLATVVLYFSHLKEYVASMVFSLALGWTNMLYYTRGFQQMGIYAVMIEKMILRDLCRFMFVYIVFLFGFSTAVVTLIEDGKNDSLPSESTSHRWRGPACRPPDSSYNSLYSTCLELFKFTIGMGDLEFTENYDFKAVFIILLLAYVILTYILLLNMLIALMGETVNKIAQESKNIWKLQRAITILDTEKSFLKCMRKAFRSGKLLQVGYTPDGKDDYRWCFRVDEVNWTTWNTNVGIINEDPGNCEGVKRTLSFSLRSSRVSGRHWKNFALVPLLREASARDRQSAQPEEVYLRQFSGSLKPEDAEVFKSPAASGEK
#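 Cells expressing TRPV1 were dye-loaded with Fluo-8 and read kinetically: 10 s baseline, 3 min after compound (agonist portion), then 2 min after EC20 capsaicin (allosteric enhancer portion). Calcium-bound dye fluorescence at 480/520 nm.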
# gsp agonist: activates gsp, the McCune-Albright syndrome mutation; Potency, µM (highest dose often 76.9 µM), inactives show at the top dose activation (cAMP increase), hits mostly activators; gsp mutant cells, cAMP HTRF, 30 min; control for the full effect not named in the record; AID 624287; actives 0.13% (n = 340,000); active = well fitted activation curve with a large enough effect; inconclusive = small, poorly fitted or top-dose-only effect, or another doubt; inactive = no such curve, though single readings can be large or run the other way; cell line not stated here;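 also: phosphodiesterase inhibitor Ro 20-1724 added with compounds to block cAMP breakdown; potency is read from the fitted curve at half-maximal effect; nearly all actives have a fitted effect of over 60% in size; about a fifth of the inactives were tested at one dose only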
#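 Cells in DMEM/10% FBS with G418 were pretreated with compounds in DMSO plus […] (300 uM stock) for 30 min at 37C. cAMP was measured by HTRF (cAMP-d2 plus anti-cAMP antibody-K) after 30 min at room temperature.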
# Menin MLL FP FL: menin-MLL binding inhibition, fluorescein peptide; Fluorescence polarization, fluorescein-MLL peptide displacement from menin; FP activity change, % at 61.4 µM; 290,000 tested, under 10 active; inconclusive = falling polarisation curve, or a change in total fluorescence; inactive = total fluorescence flat and polarisation flat or rising; no compound was filed as active; the % refers to the polarisation; negative = inhibition;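 also: % of control where 0% means no effect; inhibitors lower the polarisation; unlabelled MLL peptide was the positive control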
# ClpP mod: qHTS Assay for Activators of ClpP; purified B. subtilis ClpP, FRET peptide cleavage, 20 min; Potency, µM (series often up to 57.5 µM), inactives show top-dose activity change, negative = active; actives 1.9% (n = 340,000); AID 651965, 2013; active = well fitted falling curve with a large enough effect; inconclusive = small, poorly fitted or top-dose-only effect; inactive = no such curve, though single readings can be large or run the other way; also: potency is read from the fitted curve at half-maximal effect; the source files actives as falling curves though it sought activators and does not explain the sign; nearly all actives have a fitted effect of over 65% in size; many hits overshoot -100%
# Target sequence (P80244 whole entry, looked up): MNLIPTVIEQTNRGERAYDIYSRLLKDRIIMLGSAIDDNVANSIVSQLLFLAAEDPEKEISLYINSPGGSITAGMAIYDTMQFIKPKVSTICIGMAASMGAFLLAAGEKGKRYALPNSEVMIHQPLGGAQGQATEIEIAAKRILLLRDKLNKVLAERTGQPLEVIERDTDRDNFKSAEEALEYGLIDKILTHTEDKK
#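 ClpP 10 microg/mL final, pH 8 Tris/KCl buffer with BSA, glycerol, Tween-20; compound pinned in; FRET-FV substrate; RT 20 min; Ex320/Em430; ΔFRET vs ADEP 5.8 microM, DMSO, no enzyme.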
# Sfp inh: Sfp phosphopantetheinyl transferase inhibition; Q9F4F7; Biochemical Sfp PPTase activity, qHTS; Potency, µM, without a hit: max response, negative = inhibition, usual class: inhibitors; actives 3.5% (n = 310,000); active = well fitted inhibition curve with a large enough effect; inconclusive = small, poorly fitted or top-dose-only effect, or another doubt; inactive = no such curve, though single readings can be large or run the other way;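 also: the enzyme is Sfp with the accession as filed and its product quenches rhodamine fluorescence; potency is read from the fitted curve at half-maximal effect; 0% = enzyme reaction without inhibitor and -100% = no enzyme wells; top concentration of the series not given in the record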
#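 With Hepes-Na pH 7.6 buffer containing 10 mM MgCl2, Sfp (15 nM) modified BHQ-2-YbbR (12.5 uM) using rhodamine-CoA (5 uM). Two reads 30 minutes apart at 525/598 nm yielded each well's rate.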
# Starred values were filed as active, the others as inactive; i = inactive; ? = inconclusive; · = no result given; & = joins results of further samples; [ ] = dose if it differs, or a comment.
SMILES,TRPML1 inh,gsp antagonist,TRPV1 potentiator,gsp agonist,Menin MLL FP FL,ClpP mod,Sfp inh
CCOC(=O)C1=C(C)Nc2ncnn2C1/C=C/c1ccccc1 (stereo not given),-11,-2%,12,?,2.2,-1.2%,-3%
CCOC(=O)C1CCN(c2c(NCc3ccc(C(=O)NCCOC)cc3)c(=O)c2=O)CC1,-3,4%,8,5%,3.7,32%,16%
CCOC(=O)c1ccc(NC(=O)CC2SC(=NC)N(C)C2=O)cc1 (stereo not given),5,-1%,3,-55%[inhibitor],5.8,-2.8%,1%
O=C(CSc1nnc(-c2ccc(Cl)cc2)n1Cc1ccco1)NCc1ccc2c(c1)OCO2,46,-12%,0,3%,-0.1,-27%,-1%
O=C(c1ccccc1N(Cc1ccccc1)S(=O)(=O)c1ccccc1)N1CCOCC1,6,1%,-6,-16%[15.4 µM],-9.4,-0.6%,6%
O=C(CSc1nnc(-c2ccc(F)cc2)n1CC1CCCO1)NCc1ccco1 (stereo not given),?,2%,2,-25%,-2.7,-1.1%,1%
NC(=S)Nn1c(-c2ccccc2)nc2ccccc2c1=O,30,16%,3,-109%[inhibitor],0.6,-1.9%,-16%
CC1CCCN(C(=O)CN2CCN(C(=O)c3ccco3)CC2)C1 (stereo not given),-5,1%,-6,13%,-6.4,-5.8%,4%
O=C(NNC(=O)c1cc(-c2ccc(Br)cc2)nc2ccccc12)c1csc(N2CCOCC2)n1,-2,5%,·,2%,·,-1.2%,·
CCN1CCN(c2nc3ccccn3c(=O)c2/C=C(\C#N)S(=O)(=O)c2ccccc2)CC1,-8,-12%,15,?,?,·,29%
N#C/C(=C\Nc1ccc2c(c1)OCCO2)C(=O)NCc1ccco1,0,1%,·,6%[15.4 µM],3.7,·,7%
CC(=O)Nc1cc(OC(C)=O)c2nonc2c1OC(C)=O,7,8%,10,-6%,?,1.8%,40µM*
O=C(CN1CCOCC1)N1CCN(c2ccc3ccccc3n2)CC1,·,·,-10,·,-0.3,·,-24%
COc1cccc(NC(=O)CN(C)C(=O)COc2ccc3ccccc3c2)c1,11,0%,-7,-41%[inhibitor],6.3,-1.9%,2%
CCNC(=S)N1CCN(CCN2C(=O)c3cccc4cccc(c34)C2=O)CC1,10,-14%,-2,10%[15.4 µM],5.2,·,20%
C=CCc1cc(Cl)ccc1OCCNCCCOC,-2,10%,12,-6%,7.3,0.7%,-2%
COc1ccc(NC(=O)Nc2cccnc2)c(OC)c1,-7,-1%,1,-6%,-7.3,·,4%
Cc1cc([N+](=O)[O-])nn1CC(=O)Nc1ccc(Cc2ccncc2)cc1,-3,-27%,9,-3%,4.8,-3.2%,2%
Cc1ccnc(N2CCCC(C(=O)NC3CC3)C2)n1 (stereo not given),8,4%,8,23%,2.9,·,12%
CCN1CCN(c2nc(NCCO)c3ccccc3n2)CC1,12,-2%,-1,-25%,3.2,3.8%,-3%
COc1ccc(-n2ccnc2SCC(=O)NC2CCCC2)c(OC)c1,11,4%,0,-14%[15.4 µM],-1.3,-0.3%,18%
COC(=O)c1cc(OC)c(OC)cc1NC(=O)Nc1ccc(OC)cc1,-18,-2%,6,18%,0.5,25µM*,13%
CCn1ncc(CN2CCC(Oc3cc(C(=O)NC4CC4)ccc3OC)CC2)c1C,0,9%,?,-30%[inhibitor],·,1.5%,11%
O=C(Cn1c(NCCO)nc2ccccc21)NCC1CCCO1 (stereo not given),5,16%,-8,-8%[15.4 µM],-6.1,·,16%
COc1ccccc1N1CCN(C(=O)C(=O)N/N=C/c2cccc(O)c2)CC1,-14,1%,-2,-7%,2.2,-1.7%,4%
N#Cc1ccc2c(c1)C[C@]1(CCCCN3C(=O)c4ccccc4C3=O)Oc3c(c(=O)oc4ccc(F)cc34)C2O1,·,·,i,·,2.8[11.7 µM],·,9%
Cc1sc2nc(CSc3ccccc3)nc(NCCN(C)C)c2c1C,3,-9%,?,-17%,3.8,-0.6%,-13%
Cc1cccnc1NC(=O)c1ccc(S(=O)(=O)NCc2ccco2)cc1,9,6%,25,5%[15.4 µM],·,·,·
CCC(=O)N1c2ccccc2NC2=C(C(=O)CC(c3ccco3)C2)C1c1ccco1 (stereo not given),20,-2%,-4,?,3.4,-10%,-21%
COc1ccc(N(Cc2cc3ccccc3[nH]c2=O)S(=O)(=O)c2ccc(OC)cc2)cc1,-7,-12%,20,-16%,·,-16%,-9%
CN(C)CCCNc1ncnc2c1c(-c1ccccc1)cn2-c1ccccc1,26,11%,-5,-27%,-4.5,-5.1%,0%
O=C(COC(=O)c1cccc(Cl)c1Cl)NC1CCCC1,-8,10%,21,17%[15.4 µM],4.1,-1.2%,8%
CCOc1ccccc1Nc1cc(C)c2cccc(C)c2n1,9,-1%,9,?,0.3,·,-12%
COc1ccc(N(CC(=O)N/N=C/c2ccc(OC)cc2OC)S(=O)(=O)c2ccccc2)cc1,-15,32µM*,1,-5%,-2.3,·,4%
CC(C)CC1NC(=O)c2cc3ccccc3cc2-n2c1nc1cc(Cl)ccc1c2=O (stereo not given),-2,·,·,15%,·,-24%,·
CCc1ccc(Nc2cnn(C34CC5CC(CC(CC(=O)O)(C5)C3)C4)c(=O)c2Cl)cc1,-15,1%,3,18%[15.4 µM],-1.2,·,6%
CC(=O)c1ccc(N2CCN(C(=O)CCCn3c(=O)[nH]c4ccsc4c3=O)CC2)cc1,-2&-6,-6%,-5,-4%,-2.1,-17%,7%
CSC(=S)N/N=C/c1ccc(Br)cc1,14,6%,28,-117%[inhibitor],-5.7,0.3%,18%
O=C(NC1CCCCC1)C(c1ccc(F)cc1)N(CCCN1CCOCC1)C(=O)c1ccc(CN2CCOCC2)o1 (stereo not given),11,12%,5,-2%[15.4 µM],1.7,?,3%
N#CC1=C(N)N(c2ccccc2Sc2ccccc2)C(=O)C1,0,3%,8,-34%[inhibitor],13,-2.2%,3%
Cc1cc(C(=O)CSc2nnc(-c3ccccc3)n2Cc2ccc3c(c2)OCO3)c(C)n1C,-10,-18%,1,3%,2.0,2.9%,-7%
COc1ccc(S(=O)(=O)N2CCOCC2)cc1NC(=O)CN1CCN(C)CC1,9,6%,4,1%[15.4 µM],·,·,·
COc1ccc(CCC(=O)OCC(=O)NCc2ccccc2)cc1,14,12%,2,-45%[inhibitor],·,2.2%,·
CCN(CC)S(=O)(=O)c1cc(C(=O)Nc2cc(Cl)ccc2N2CCN(C)CC2)ccc1Cl,-3,11%,8,2%,-0.5,-1.7%,50µM*
O=C(c1ccc2ccccc2c1)N1CCOCC1,-5,14%,-13,20%[15.4 µM],·,·,·
Cc1cc(C)n2c(SCC(=O)Nc3ccc(F)cc3)nnc2n1,-1,4%,1,0%,-1.6,0.2%,16µM*
Cc1ccccc1CC1SC(N)=NC1=O (stereo not given),-9,5%,-2,0%[15.4 µM],-1.1,1.6%,16%
COc1ccc(-n2nc(C(=O)NCC(=O)N3CCN(c4ccccn4)CC3)c3ccccc3c2=O)cc1,-11,-2%,16,0%,-1.3,-2.0%,4%
O=C(c1ccc(S(=O)(=O)Nc2ccccc2F)cc1)N1CCCC1,-8,10%,-28,58%[15.4 µM],·,·,·
O=C(CN(CC1CCCO1)C(=O)CNS(=O)(=O)c1ccc(F)cc1)NC1CCCCC1 (stereo not given),12,12%,0,4%[15.4 µM],·,·,13%
CN(C)CCN1C(=O)c2ccccc2C1=O,-3,-6%,-8,·,·,-4.9%,·
Cc1cc(C)c(OCC(O)CN2CCN(c3ccccn3)CC2)c(C)c1 (stereo not given),4,-4%,-21,-26%,-7.0,-1.2%,6%
O=Cc1cccc(Oc2ncccn2)c1,?,-3%,3,?,0.2,1.0%,7%
NC(=O)c1ccsc1NC(=O)COC(=O)c1ccccn1,1,0%,0,?,·,-9.8%,·
O=C(CCC(=O)Nc1ccc(Cl)cc1Cl)NNC(=O)[C@@H]1CCCC[C@@H]1C(=O)O,11,11%,14,18%,1.4,-0.6%,17%
Cc1ccccc1NC(=O)COC(=O)CNC(=O)c1sc2ccccc2c1Cl,-7,6%,1,-1%[15.4 µM],3.8,-6.1%,-6%
CNc1ncnc2c1ncn2-c1ccccc1,-7,5%,·,-22%,·,-22%,·
Cc1ccc(C(=O)NC(=S)Nc2ccc(N3CCOCC3)cc2)cc1,-2,8%,6,-53%[inhibitor],-0.4,·,-26%
COc1ccc(/C=C2\N=C3CCCN3C2=O)cc1,·,12%,0,-81%[inhibitor],5.2,0.9%,22%
Cc1nc(SCC(N)=O)[nH]c(=O)c1Cc1ccc(OC(C)C)cc1,11,-8%,0,-8%,13,-14%,-11%

# More entries.
SMILES,TRPML1 inh,gsp antagonist,TRPV1 potentiator,gsp agonist,Menin MLL FP FL,ClpP mod,Sfp inh
NNC(=O)c1ccc(Cl)cc1Cl,22,6%,-5,-40%[inhibitor],0.1,0.0%,1%
CN1CCN(C(=S)c2cn(CCOc3ccccc3)c3ccccc23)CC1,19,3%,-5,-3%,-3.9,-0.4%,-8%
CC(=O)Nc1cccc(NC(=O)c2sc3ncn(CC(=O)N4CCCCC4)c(=O)c3c2C)c1,18,-6%,0,25%,-0.8,-4.1%,-4%
O=C(OCC(=O)N1CCOCC1)c1ccc(O)cc1,21,-1%,2,?,·,·,24%
CCOc1nc(-c2ccc(C)cc2)ccc1-c1noc(-c2cccnc2)n1,·,·,9,·,-1.4,·,15%
CCOC(=O)C1CCC(=O)C1 (stereo not given),-5,0%,·,-2%,·,·,·
COc1ccc(-n2nc(C(=O)NCC(=O)NC3CCCCCC3)c3ccccc3c2=O)c(OC)c1,7,-11%,?,-41%[inhibitor],0.5,·,1%
O=[N+]([O-])c1cc2c(c([N+](=O)[O-])c1)Nc1ccccc1O2,19,·,·,-5%,·,0.2%,·
NC(=S)c1c(Cl)cc(C(F)(F)F)cc1Cl,-10,5%,-3,-4%[15.4 µM],0.6,-1.7%,18%

# Screening data (PubChem)
